Source: PubChem BioAssay
LASV entry inh – qHTS for Inhibitors of binding or entry into cells for Lassa Virus; 1.2% of 300,000 active; Lassa virus pseudotype entry inhibition, cell reporter; control for the full effect not named in the record; Potency, µM (titrated, usually from 37.9 µM), without a hit: at the top dose activity change, negative = inhibition, usual class: inhibitors; AID 540256, 2011; active means well fitted inhibition curve with a large enough effect; inconclusive means small, poorly fitted or top-dose-only effect, or effect the other way; inactive means flat fitted curve, though single readings scatter; tested in HEK293 cells; further: on the % scale 0 is the no-effect control and ±100 the full control effect; nearly all actives have a fitted effect of over 50% in size; luciferase read-out
SARS PLpro yeast – qHTS of Yeast-based Assay for SARS-CoV PLP; S. cerevisiae expressing SARS-CoV PLpro, growth rescue; control for the full effect not named in the record; Potency, µM (top dose mostly 32.9 µM), for inactives: top-dose activity, positive = growth rescue; 0.19% of 330,000 active; AID 485353, 2010; active means well fitted rising curve with a large enough effect; inconclusive means small, poorly fitted or top-dose-only effect; inactive means no such curve, though single readings can be large or run the other way; further: 0% is about no effect; nearly all actives have a fitted effect of over 55% in size; growth read by luminescence after 48 h
NS1 function inh – qHTS Assay for Inhibitors of Influenza NS1 Protein Function | S. cerevisiae slowed by influenza A NS1, growth recovery by OD600 | Potency, µM (titrated, usually from 46.1 µM), for inactives: top-dose activity, positive = more growth | 0.4% of 270,000 active | AID 2326, 2010; active means well fitted rising curve with a large enough effect; inconclusive means small, poorly fitted or top-dose-only effect; inactive means no such curve, though single readings can be large or run the other way; further: nearly all actives have a fitted effect of over 50% in size
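OD600 was taken as the measure of yeast growth restored by compound in an NS1-expressing S. cerevisiae strain. Cells had been washed out of glucose medium and diluted 1:100 into galactose -URA medium, pH 6.0.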
Cruzain noTriton – qHTS Assay for Promiscuous and Specific Inhibitors of Cruzain (without detergent). Cruzipain (Trypanosoma cruzi), P25779. purified cruzain, Z-FR-AMC fluorescence, no detergent. Potency, µM, for the others: max response, negative = inhibition, actives largely listed as inhibitors. 2.3% of 200,000 active. AID 1476, 2009;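 further: plate controls were enzyme without inhibitor for no effect and buffer without enzyme for full effect; nearly all actives have a fitted effect of over 40% in size; top concentration of the series not given in the record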
Target sequence (P25779 123-467 limits assumed): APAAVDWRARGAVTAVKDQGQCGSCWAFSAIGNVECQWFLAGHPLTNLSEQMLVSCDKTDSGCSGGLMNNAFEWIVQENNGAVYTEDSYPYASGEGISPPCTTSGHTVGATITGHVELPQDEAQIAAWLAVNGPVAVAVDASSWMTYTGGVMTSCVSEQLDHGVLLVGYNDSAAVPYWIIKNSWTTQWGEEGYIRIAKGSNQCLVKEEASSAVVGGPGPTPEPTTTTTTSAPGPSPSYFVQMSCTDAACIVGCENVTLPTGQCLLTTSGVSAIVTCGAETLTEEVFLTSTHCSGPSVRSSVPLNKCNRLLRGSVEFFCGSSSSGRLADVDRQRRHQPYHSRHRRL
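Detergent-free condition (0.00005% Triton X-100) in acetate buffer pH 5.5 with DTT. 1.5 nM enzyme and compound were pre-mixed 15 min, then 2 uM Z-FR-AMC substrate added; reaction progress from fluorescence change between first and third reads (60 s).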
Cruzain Triton – qHTS Assay for Promiscuous and Specific Inhibitors of Cruzain (with detergent) | 0.43% of 200,000 active | purified cruzain, Z-FR-AMC fluorescence, 0.01% Triton | Potency, µM, inactives show max response, negative = inhibition, actives largely listed as inhibitors | Cruzipain (Trypanosoma cruzi), P25779 | AID 1478, 2009;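 further: plate controls were neutral wells for no effect and buffer without enzyme for full effect; nearly all actives have a fitted effect of over 40% in size; top concentration of the series not given in the record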
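Z-FR-AMC hydrolysis (2 uM substrate) by cruzain (1.5 nM) monitored kinetically at ex 360/em 450 nm after 15 min room-temperature compound exposure; 0.01% Triton X-100, pH 5.5, 5 mM DTT.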
MARV entry inh – qHTS for inhibitors of binding or entry into cells for Marburg Virus; Marburg virus pseudotyped entry inhibition, cell reporter; control for the full effect not named in the record; about a third of the inactives were read at about 46 µM; 1.8% of 300,000 active; AID 540276, 2011; Potency, µM (series often up to 37.8 µM), inactives show top-dose activity change, negative = inhibition, most hits filed as inhibitors; active = well fitted inhibition curve with a large enough effect; inconclusive = small, poorly fitted or top-dose-only effect, or effect the other way; inactive = flat fitted curve, though single readings scatter; tested in HEK293 cells; about a fifth of its hits are not listed in these tables; further: on the % scale 0 is the no-effect control and ±100 the full control effect; luciferase read-out
StopGo reporter – High Throughput Screening for Foot and Mouth Disease Virus Antivirals | human cells with a luciferase reporter of 2A StopGo recoding; control for the full effect not named in the record | Potency, µM (titrated, usually from 57.9 µM), for the others: at the top dose signal change, negative = less light | 1.2% of 410,000 active; active = well fitted falling curve with a large enough effect; inconclusive = small, poorly fitted or top-dose-only effect; inactive = no such curve, though single readings can be large or run the other way; tested in HEK293T cells; further: on the % scale 0 is the no-effect control and ±100 the full control effect; nearly all actives have a fitted effect of over 45% in size; luciferase light after 4 h
RE007 growth inh – qHTS Assay for Inhibitors of the HIV-1 protein Vpr | S. pombe RE007 Vpr strain, BacTiter-Glo ATP luminescence, 24 h; control for the full effect not named in the record | Potency, µM (series often up to 92.2 µM), inactives show top-dose activity change, negative = less growth | 0.21% of 360,000 active; active = well fitted falling curve with a large enough effect; inconclusive = small, poorly fitted or top-dose-only effect; inactive = no such curve, though single readings can be large or run the other way;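 further: on the % scale 0 is the no-effect control and ±100 the full control effect; nearly all actives have a fitted effect of over 50% in size; the assay follows cell death caused by Vpr and the record does not say whether a fall means rescue or toxicity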
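Fission yeast strain RE007, carrying one chromosomally integrated HIV-1 vpr copy, was seeded at OD 0.01 in PMG+AL medium with 23 nL pinned compound. After 24 h at 30 °C and 99% humidity, viability was read by BacTiter-Glo luminescence.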
An asterisk follows results filed as active; ? = inconclusive; · = not tested or not shown; & = joins results of further samples; [ ] = another dose, or the depositor's remark. Unless noted, the call rests on the fitted dose curve; in most records, active means well fitted curve in the direction sought with a large enough effect; inconclusive means small, poorly fitted or top-dose-only effect, or another doubt; inactive means no such curve, though single readings can be large; an effect the other way counts as inactive or inconclusive. Potency means the concentration at half of the fitted maximal effect.

SMILES | LASV entry inh | SARS PLpro yeast | NS1 function inh | Cruzain noTriton | Cruzain Triton | MARV entry inh | StopGo reporter | RE007 growth inh
COc1ccc(S(=O)(=O)NC(CC(=O)NCc2ccc3c(c2)OCO3)c2ccco2)cc1 (centres undefined) | 13% | 11% | 0% | -1% | 3.7% | -6%[46.1 µM] | 28% | -4%
COc1cccc(NC(=O)COc2ccc(C(=S)N3CCN(C)CC3)cc2OC)c1 | ? | 0% | 23% | · | · | -29% | 0% | -2%
Cn1nnnc1SCC(=O)Nc1ccccc1C(N)=O | · | 0% | -2% | · | · | · | 2% | 0%
CCOc1cc2[nH]c(=S)n(Cc3ccc(C(=O)NCCCOC)cc3)c(=O)c2cc1OCC | · | 0% | -2% | · | · | · | -1% | -11%
Cc1c(C)c(C)c(C(=O)CCc2cccc(NC(=O)CCC(=O)O)c2)c(C)c1C | · | -1% | 4% | · | · | · | -16% | 10%
COC(=O)Cc1ccc(NC(=O)c2ccc3c(c2)C(=O)N(Cc2cccnc2)C3=O)cc1 | -2%[46.1 µM] | 0% | 0% | · | · | 0%[46.1 µM] | ? | 1%
CCOc1cccc(/C=C/c2ccc3ccccc3n2)c1OC(C)=O | · | -4% | -51% | · | · | · | -62% | -15%
CCc1c(O)nc(SCC(=O)Nc2ccccc2OC)[nH]c1=O | -4% | -4% | ? | -9% | 1.9% | 10% | -6% | 38%
Cc1ccccc1OCc1nc2ccccc2c(=O)n1/N=C/c1c[nH]c2ccccc12 | ? | 10% | 6% | ? | -5.4% | -6% | -30% | -2%
CCC(=O)N1CCc2cc(S(=O)(=O)CCC(=O)N3CCc4ccccc4C3)ccc21 | -2% | -1% | -3% | 12% | 6.0% | -21% | -6% | -3%
CCOC(=O)c1ccc(NC(=O)N2CC(C)OC(C)C2)cc1 (centres undefined) | -14% | 3%&0% | -18%&-1% | 12% | 6.6% | 7%&7% | 4% | -1%
C=CCC(O)(CC=C)CNC(=O)c1ccc(OC)c(OC2CCN(C(C)=O)CC2)c1 | · | 9% | -2% | · | · | · | 2% | 0%
Cc1ccc(C(=O)NCC(=O)OCCCOC(=O)CNC(=O)c2ccc(C)cc2)cc1 | 18% | 5% | · | · | · | 0%[46.1 µM] | 8% | -9%
CCOCCCN(C)C1CCN(C(=O)c2oc3ccccc3c2NC(=O)Cc2ccc(F)cc2)CC1 | ? | -10% | 1% | · | · | ? | 69%[activator] | -2%
CCC(=O)N1CCc2cc(OC)c(OC)cc2C1COc1ccc(C(=O)OC)cc1 (centres undefined) | ? | 27% | -13% | ? | 4.5% | ? | ? | 13%
O=C(Nc1nc2ccc(F)cc2s1)C1CCCO1 (centres undefined) | ? | -1% | -25% | -4% | -0.3% | 1% | 18% | -28%
C/C(=N\NC(=O)Cc1cc(=O)[nH][nH]1)c1cccc([N+](=O)[O-])c1 | · | ? | 27% | 3% | -2.8% | · | -4% | -9%
COc1ccc(OC)c(NC(=O)Cn2cnc3sc(C)c(S(=O)(=O)N4CCN(c5ccccc5OC)CC4)c3c2=O)c1 | 7%[46.1 µM] | · | · | 10% | -1.3% | 13%[46.1 µM] | -21% | ·
N#Cc1c(-c2ccccc2)nc(SCc2ccc([N+](=O)[O-])cc2)[nH]c1=O | ? | 0% | ? | · | · | 14% | -7% | 16%
COC(=O)[C@@H]1CCCN1C(=O)CCc1nnc(CCC2CCCCC2)o1 | ? | 0% | -4% | · | · | ? | 35%[activator] | -18%
Cc1c(C(=O)NCCSCc2ccccc2)cccc1[N+](=O)[O-] | ? | -1% | -10% | · | · | ? | 18% | 7%
COc1ccc(OCCNC(=O)/C=C/c2ccccc2)cc1 | · | 1% | · | · | · | -1%[46.1 µM] | 6% | 9%
CC1CCCC(NC(=O)CC2Nc3ccccc3NC2=O)C1C (centres undefined) | 15% | -11% | 11% | 7% | 0.7% | 16% | 0% | -25%
COc1ccc(S(=O)(=O)NCCc2sc(-c3cccc(F)c3)nc2C)cc1 | 2%[46.1 µM] | · | · | 2% | -6.4% | · | 19% | ·
COc1ccc(N(Cc2ccccc2)S(=O)(=O)c2cccc(C(=O)NC3=NCCS3)c2)cc1 | -14% | -20% | -3% | 25µM* | 3.9% | -25%[46.1 µM] | -8% | 10%
CN(c1ccccc1)c1cc(Br)nc(Br)c1 | 10% | · | · | · | · | 10% | -9% | -5%
COc1ccccc1C(=O)C1CCCN(C(=O)CCc2ccccn2)C1 (centres undefined) | -13%[46.1 µM] | -1% | -2% | · | · | -13%[46.1 µM] | 31%[activator] | 3%
O=C(CNCc1ccccc1Cl)Nc1ccccc1N1CCCCC1 | 20%[46.1 µM] | -1% | -12% | · | · | ? | -22% | 3%
CC1=NNC(=O)C1CCC(=O)N/N=C\c1ccc(Cl)c(Cl)c1 (centres undefined) | 7% | 1% | 11% | · | · | -2%[46.1 µM] | 1% | 16%
CCOC(=O)C1CCCN(C(=O)Cn2nc(Cc3cccnc3)c3ccccc3c2=O)C1 (centres undefined) | · | 7% | -11% | 3% | 0.3% | · | -9% | 1%
COc1ccc(-c2cc(=O)oc3cc(OCC(=O)N(C)C4CCS(=O)(=O)C4)ccc23)cc1 (centres undefined) | -7%[46.1 µM] | 2% | -6% | · | · | 7%[46.1 µM] | -19% | 7%
c1coc(-c2nc3nc4ccccc4nc3n2CC2CCCO2)c1 (centres undefined) | 2% | 14% | -7% | -91% | ? | 0% | -1% | 1%
CCCN(C(=O)CCc1nc(-c2ccc(C)cc2)no1)c1ccc(OCC)cc1 | ? | · | · | 11% | -8.5% | ? | -18% | ·
CCOC(=O)c1cnc(SCC(=O)Nc2cc(OC)cc(OC)c2)nc1N | -21% | 2% | -2% | 3% | 1.9% | -1% | 0% | 13%
Cc1[nH]cnc1C(=O)N/N=C/c1c(Cl)cccc1Cl | 8%[46.1 µM] | -4% | 2% | · | · | ? | 6% | ?
O=C(/C=C/c1ccc(Cl)cc1)N(Cc1ccccc1)C1CCS(=O)(=O)C1 (centres undefined) | -6% | -9% | -5% | 1% | -1.9% | ? | -22% | 24%
CCOC(=O)C1CN(Cc2ccccc2)C(=O)C1=O (centres undefined) | -1% | · | · | · | · | 10% | -16% | 3%
CCc1cccc(NC(=O)c2cc(-c3ccccc3)n[nH]2)c1 | 11%[46.1 µM] | · | · | ? | 1.1% | · | 14% | ·
COc1cc2ccccc2cc1C(=O)N1CCN(c2nc3c(F)cccc3s2)CC1 | ? | · | · | -4% | -2.5% | · | -19% | ·
O=C(NCCCN1CCOCC1)c1ccccc1NS(=O)(=O)c1cc([N+](=O)[O-])ccc1Cl | -11% | -9% | -4% | 4% | -0.9% | -14%[46.1 µM] | 21% | -9%

Taken from above:
COc1ccc(OCCNC(=O)/C=C/c2ccccc2)cc1 | MARV entry inh = -1%[46.1 µM]
COc1ccc(S(=O)(=O)NC(CC(=O)NCc2ccc3c(c2)OCO3)c2ccco2)cc1 (centres undefined) | StopGo reporter = 28%
Cc1ccc(C(=O)NCC(=O)OCCCOC(=O)CNC(=O)c2ccc(C)cc2)cc1 | LASV entry inh = 18%
CC1=NNC(=O)C1CCC(=O)N/N=C\c1ccc(Cl)c(Cl)c1 (centres undefined) | NS1 function inh = 11%
COc1cc2ccccc2cc1C(=O)N1CCN(c2nc3c(F)cccc3s2)CC1 | StopGo reporter = -19%

(list continues)
SMILES | LASV entry inh | SARS PLpro yeast | NS1 function inh | Cruzain noTriton | Cruzain Triton | MARV entry inh | StopGo reporter | RE007 growth inh
CCN(CC)C(=O)c1sc(NC(=O)C(C)Sc2nc(-c3ccccc3)cc(C(F)(F)F)n2)c(C(=O)OC)c1C (centres undefined) | -25%[46.1 µM] | · | · | ? | -8.2% | ? | -15% | ·
Cc1ccc(S(=O)(=O)Nc2cc(C)cn(Cc3ccc(F)cc3)c2=O)cc1 | -30%[46.1 µM] | 1% | -2% | · | · | ? | 10% | 6%
COCC[N+]1(C)CCCCC1 | -20%[46.1 µM] | -5% | · | · | · | ? | -16% | -1%
CNC(=O)COC(=O)c1c2c(nc3ccccc13)CCC2 | · | -1% | -1% | · | · | · | -23% | 10%
O=c1[nH]c(=S)n(C2CCCCC2)c(O)c1C=NCCN1CCOCC1 | · | 2% | 1% | · | · | · | -6% | 6%
Cc1nc2c3cnn(-c4ccc(C)c(C)c4)c3ncn2n1 | -5% | 4% | -2% | ? | 6.1% | ? | 12% | -4%
Oc1ccccc1-c1nc2cnccn2c1Nc1ccc(Cl)cc1 | -11%[46.1 µM] | · | · | 2% | -12% | -26%[46.1 µM] | ? | ·
CC(C)C(NC(=O)C(c1ccccc1)c1ccccc1)c1nc2ccccc2[nH]1 (centres undefined) | -29% | -1% | 2% | -1% | 0.1% | ? | -25% | -7%
Cc1oncc1-c1csc(-c2ccccc2Cl)n1 | · | -1% | -12% | · | · | · | 28% | -23%
CC(CN1CCN(C)CC1)OC(=O)c1ccc(Cl)cc1 (centres undefined) | 10% | 8% | 0% | 11% | 1.8% | -13% | 22% | 12%
C/C(=N\NC(=O)CN(c1ccccc1Br)S(C)(=O)=O)c1ccc2c(c1)OCCO2 | -3% | -7% | 16% | -6% | -4.8% | -4% | -13% | 9%

Single records (already shown). Screens in order: LASV entry inh, SARS PLpro yeast, NS1 function inh, Cruzain noTriton, Cruzain Triton, MARV entry inh, StopGo reporter, RE007 growth inh
CCC(=O)N1CCc2cc(OC)c(OC)cc2C1COc1ccc(C(=O)OC)cc1 (centres undefined) as listed: ?, 27%, -13%, ?, 4.5%, ?, ?, 13%
COc1ccc(S(=O)(=O)NCCc2sc(-c3cccc(F)c3)nc2C)cc1 as listed: 2%[46.1 µM], ·, ·, 2%, -6.4%, ·, 19%, ·

An unsorted share of the library; about 4.7% have a hit in one of these screens.
